RE007 growth inh = less growth of the S. pombe RE007 Vpr strain. S. pombe RE007 Vpr strain, BacTiter-Glo ATP luminescence, 24 h; control for the full effect not named in the record. Potency, µM (titrated, usually from 92.2 µM), for inactives: top-dose activity change, negative = less growth. 0.21% of 360,000 active. AID 651644; active = well fitted falling curve with a large enough effect; inconclusive = small, poorly fitted or top-dose-only effect; inactive = no such curve, though single readings can be large or run the other way;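 further: on the % scale 0 is the no-effect control and ±100 the full control effect; nearly all actives have a fitted effect of over 50% in size; the assay follows cell death caused by Vpr and the record does not say whether a fall means rescue or toxicity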
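Fission yeast RE007 carrying one integrated HIV-1 vpr copy, seeded at OD 0.01 in PMG+AL medium with 23 nL pinned compound. Grown 24 h at 30 degrees; viability read by BacTiter-Glo luminescence after 5 min.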
StopGo reporter = FMDV 2A StopGo reporter, luciferase signal; human cells with a luciferase reporter of 2A StopGo recoding; control for the full effect not named in the record; Potency, µM (top dose mostly 57.9 µM), for inactives: at the top dose signal change, negative = less light; 1.2% of 410,000 active; active = well fitted falling curve with a large enough effect; inconclusive = small, poorly fitted or top-dose-only effect; inactive = no such curve, though single readings can be large or run the other way; tested in HEK293T cells; further: on the % scale 0 is the no-effect control and ±100 the full control effect; nearly all actives have a fitted effect of over 45% in size; luciferase light after 4 h
SARS PLP yeast = SARS-CoV PLP inhibition in yeast. S. cerevisiae expressing SARS-CoV PLpro, growth rescue; control for the full effect not named in the record. Potency, µM (highest dose often 32.9 µM), for inactives: at the highest dose activity, positive = growth rescue. 0.19% of 330,000 active; active means well fitted rising curve with a large enough effect; inconclusive means small, poorly fitted or top-dose-only effect; inactive means no such curve, though single readings can be large or run the other way; further: 0% is about no effect; nearly all actives have a fitted effect of over 55% in size; growth read by luminescence after 48 h
* marks the source's active call; other numbers are inactive results; ? = inconclusive; & = joins results of further samples; [ ] = another dose, or the depositor's remark. Potency means the concentration at half of the fitted maximal effect. This is a subset. The share of hits here may be higher or lower than overall.

Fields – RE007 growth inh | StopGo reporter | SARS PLP yeast
1	COc1ccc(S(=O)(=O)Nc2ccc3c(c2)C(=O)N([C@H](C)CO)C[C@H](C)[C@@H](CN(C)S(=O)(=O)c2ccccc2)O3)cc1
    4% | -6% | -4%
2	CC(C#N)(NC(=O)CN1CCN(S(=O)(=O)c2ccccc2Cl)CC1)C1CC1 (configuration not stated)
    0% | 3% | -4%
3	COc1ccccc1C(=O)OCC(=O)c1ccc(CNC(C)=O)s1
    -3% | 7% | -4%
4	O=C(COc1cc(F)ccc1[N+](=O)[O-])Nc1ccc2c(c1)OCO2
    0% | 31%[activator] | -3%
5	CC(C)Cn1c(N)c(C(=O)CSc2n[nH]c(N)n2)c(=O)n(C)c1=O
    -10% | -10% | -2%
6	Cc1c(C(=O)O)cccc1-n1c(C)cc(C=O)c1C
    9% | -10% | 0%
7	O=C(Cn1nc(-c2ccc3c(c2)OCCO3)ccc1=O)Nc1ccc(-n2cnnn2)cc1
    -11% | -2% | 1%
8	O=C(CN1C(=O)NC2(CCOc3ccccc32)C1=O)Nc1ccc(Br)cc1F (configuration not stated)
    0% | -19% | 5%
9	CN(C)S(=O)(=O)c1cc(NC(=O)Cn2ccsc2=N)ccc1Cl
    -10% | -10% | -3%
10	O=C(COC(=O)C1=COCCO1)Nc1ccc(Cl)cn1
    7% | 6% | -1%

Limited to StopGo reporter and RE007 growth inh, for some of the entries so far:
no.	smiles	StopGo reporter	RE007 growth inh
10	O=C(COC(=O)C1=COCCO1)Nc1ccc(Cl)cn1	6%	7%
4	O=C(COc1cc(F)ccc1[N+](=O)[O-])Nc1ccc2c(c1)OCO2	31%[activator]	0%
1	COc1ccc(S(=O)(=O)Nc2ccc3c(c2)C(=O)N([C@H](C)CO)C[C@H](C)[C@@H](CN(C)S(=O)(=O)c2ccccc2)O3)cc1	-6%	4%
3	COc1ccccc1C(=O)OCC(=O)c1ccc(CNC(C)=O)s1	7%	-3%
6	Cc1c(C(=O)O)cccc1-n1c(C)cc(C=O)c1C	-10%	9%

Next part.
Fields – RE007 growth inh | StopGo reporter | SARS PLP yeast
11	COc1ccc(C(=O)/C=C/c2ccc(O)cc2)c(O)c1C/C=C(\C)CCC=C(C)C
    0% | ? | 3%
12	N=c1n(CC(=O)c2ccc(Br)cc2)c2ccccc2n1Cc1ccccc1
    2% | -12% | -12%
13	COc1ccccc1C(=O)COC(=O)C(NC(=O)Cc1ccccc1)C(C)C (configuration not stated)
    0% | 22% | -1%
14	Cc1sc2c(c1C)c(=O)n(-c1ccccc1)c(=O)n2CC(=O)NCC1CCCO1 (configuration not stated)
    15% | 22% | 1%
15	CCOC(=O)C1=CN(Cc2cccc(F)c2)S(=O)(=O)N(C)C1c1ccc(C(F)(F)F)cc1 (configuration not stated)
    1% | -19% | -8%
16	CCn1c(CN2CCCCC2)nc2cc(S(=O)(=O)N3CCCCC3)ccc21
    1% | -26% | -3%
17	Cc1ccc2nc(-c3cccc(SC4CCCCC4)c3)c(NC3CCCCC3)n2c1
    11%&-3% | ? | 8%
18	CC(=O)Nc1ccc(S(=O)(=O)N(CC(=O)NC2CC2)Cc2ccccc2)cc1
    1% | -9% | -5%
19	COc1cc(-c2ccc3oc(-c4ccsc4)cc(=O)c3c2)cc(OC)c1OC
    -4% | ? | 4%
20	O=C1C=C(c2cccc(O)c2)C[C@@H](c2ccc(F)cc2)C1
    14% | -12% | 6%

The results go on:
Fields – RE007 growth inh | StopGo reporter | SARS PLP yeast
21	CC[n+]1c(C)cc2c(sc3ccccc32)c1C
    -23% | -10% | 0%
22	CCOC(=O)[C@H]1[C@H]2COc3ccc(Br)cc3[C@@H]2N2C(=O)c3ccc(Cl)cc3NC(=O)[C@@]12C
    -6% | ? | -2%
23	CCSc1nnc(SCC(=O)NC2CCCCC2)s1
    0% | -7% | -1%
24	CCOP(=O)(OCC)C(NC(C)=O)C(=O)c1ccccc1 (configuration not stated)
    17% | -13% | 1%
25	COc1cc(F)c(C2=CC(=O)C[C@H](c3ccc4c(c3)OCO4)C2)cc1F
    -6% | -13% | -11%
26	CCN(C(=O)c1cccc(S(=O)(=O)N2CCc3ccccc32)c1)C1CCS(=O)(=O)C1 (configuration not stated)
    -4% | -10% | 5%
27	CCOc1ccc(C(=O)N(CC)CC(=O)Nc2ccc3c(c2)OCCO3)cc1
    7% | 12% | 6%
28	CN1C(=O)N(CC(=O)N2CCN(S(=O)(=O)/C=C/c3ccccc3)CC2)C(=O)C12CCCCC2
    1% | -9% | -7%
29	CCn1c(N)c(Br)c(=O)[nH]c1=O
    3% | -19% | -1%
30	COc1ccc(CN2CCN(C(=O)c3cc(C4CC4)nn3-c3ccccc3)CC2)cc1F
    10% | -29% | -25%

The listing continues:
Fields – RE007 growth inh | StopGo reporter | SARS PLP yeast
31	CC[C@@H](C)[C@@H]1CN([C@@H](CN2CCC[C@H]2CN2C(N)=NC[C@@H]2Cc2ccccc2)C(C)C)C(=N)N1CCCC1CCCC1
    12% | -16% | -2%
32	COc1ccccc1C(C)NC(=O)c1ccc(NC(=O)CC2SC(N3CCCC3)=NC2=O)cc1 (configuration not stated)
    -4% | -14% | 14%
33	CN1CCN(S(=O)(=O)c2cccc(C(=O)Nc3sccc3C(N)=O)c2)CC1
    5% | -27% | 2%[6.58 µM]
34	Cc1ccc2nc(-c3ccncc3)c(NC3CCCC3)n2c1
    1% | -24% | 0%
35	CCC(=O)c1ccc(OCC(=O)Nc2ccccc2N2CCOCC2)cc1
    -9% | ? | -4%
36	COc1ccc(CSCCNC(=S)Nc2ccccc2)cc1Cl
    0% | 22% | -1%
37	Cc1ccc(C(=O)Nc2ccc(S(=O)(=O)NC3=NCCCCC3)cc2)cc1S(=O)(=O)N1CCOCC1
    7% | -12% | 6%
38	O=C(Nc1ccc2c(c1)OCO2)c1ccccn1
    -15% | 61%[activator] | -9%
39	CCN(CC)C(=O)CN1C(=O)NC2(CCc3ccccc3C2)C1=O (configuration not stated)
    -12% | -12% | 0%
40	COc1cccc(NC(=O)CSc2nnc(C3CCCCC3)n2N)c1
    -4% | 4% | -1%

Next section
Fields – RE007 growth inh | StopGo reporter | SARS PLP yeast
41	COC(=O)c1ccc(C(=O)OC)c(NC(=S)N2CCC(N3CCCCC3)CC2)c1
    -9% | -1% | 5%
42	CC[C@@H]1C/C=C\Cc2ccccc2[C@@H](C(=O)C[C@H](O)CC(C)=O)OC1=O
    20% | -22% | -4%
43	CC1(c2ccc3ccccc3c2)NC(=O)N(CC(=O)N2CCN(Cc3ccccc3)CC2)C1=O (configuration not stated)
    15% | ? | -2%
44	CN1/C(=C\C=C2C(=O)NC(=O)NC2=O)C(C)(C)c2ccccc21
    -14% | -8% | 0%
45	C[C@H]1CN([C@@H](C)CO)C(=O)Cc2cc(NC(=O)CCC(F)(F)F)ccc2O[C@H]1CN(C)S(=O)(=O)c1ccc(F)cc1
    0% | -14% | -1%
46	CN(C)C/C=C/C(=O)Nc1cccc(-c2c[nH]c3ncnc(Oc4ccc(NC(=O)CC(=O)Nc5ccc(F)cc5)cc4F)c23)c1
    -4% | -5% | -1%
47	Cc1noc(C)c1S(=O)(=O)N(C)C[C@H]1Oc2ccc(NC(=O)C3CC3)cc2C(=O)N([C@H](C)CO)C[C@@H]1C
    13% | -16% | 5%
48	CC(C)CN(C(=O)c1ccc(N2CCCC2=O)cc1)c1c(N)n(Cc2ccccc2)c(=O)[nH]c1=O
    3% | 0% | -6%
49	CCOC(=O)c1c(NC(=O)COC(=O)c2nccnc2N)sc2c1CCC2
    1% | -38% | -1%
50	COc1ccc(S(=O)(=O)N(C)C[C@@H]2Oc3c(NS(=O)(=O)c4cn(C)cn4)cccc3C(=O)N([C@@H](C)CO)C[C@@H]2C)cc1
    2% | -5% | -34%

Some of these compounds in order of heavy-atom count, high to low:
Fields – RE007 growth inh | StopGo reporter | SARS PLP yeast
19	COc1cc(-c2ccc3oc(-c4ccsc4)cc(=O)c3c2)cc(OC)c1OC
    -4% | ? | 4%
4	O=C(COc1cc(F)ccc1[N+](=O)[O-])Nc1ccc2c(c1)OCO2
    0% | 31%[activator] | -3%
38	O=C(Nc1ccc2c(c1)OCO2)c1ccccn1
    -15% | 61%[activator] | -9%

The listing picks up, repeating the six entries before the break.
Fields – RE007 growth inh | StopGo reporter | SARS PLP yeast
45	C[C@H]1CN([C@@H](C)CO)C(=O)Cc2cc(NC(=O)CCC(F)(F)F)ccc2O[C@H]1CN(C)S(=O)(=O)c1ccc(F)cc1
    0% | -14% | -1%
46	CN(C)C/C=C/C(=O)Nc1cccc(-c2c[nH]c3ncnc(Oc4ccc(NC(=O)CC(=O)Nc5ccc(F)cc5)cc4F)c23)c1
    -4% | -5% | -1%
47	Cc1noc(C)c1S(=O)(=O)N(C)C[C@H]1Oc2ccc(NC(=O)C3CC3)cc2C(=O)N([C@H](C)CO)C[C@@H]1C
    13% | -16% | 5%
48	CC(C)CN(C(=O)c1ccc(N2CCCC2=O)cc1)c1c(N)n(Cc2ccccc2)c(=O)[nH]c1=O
    3% | 0% | -6%
49	CCOC(=O)c1c(NC(=O)COC(=O)c2nccnc2N)sc2c1CCC2
    1% | -38% | -1%
50	COc1ccc(S(=O)(=O)N(C)C[C@@H]2Oc3c(NS(=O)(=O)c4cn(C)cn4)cccc3C(=O)N([C@@H](C)CO)C[C@@H]2C)cc1
    2% | -5% | -34%
51	CN(CC(=O)NC(=O)NC1CCCCC1)Cc1ccccc1
    -9% | 36%[activator] | 5%
52	C=CCNc1cc(F)ccc1S(=O)(=O)NCC=C
    -11% | 67%[activator] | 20%
53	COc1ccccc1C(=O)NCC(=O)N1CCN(S(=O)(=O)c2ccccc2C(F)(F)F)CC1
    -5% | -13% | 6%
54	COc1ccc([C@H]2CC(=O)C=C(c3ccc(Br)c4ccccc34)C2)cc1
    6% | -12% | -2%
55	Cc1ccc([C@@H]2CC=C(C(=O)O)[C@H](c3cccc(F)c3)N2S(=O)(=O)c2ccccc2C)cc1
    8% | 2% | 2%
56	O=C(Nc1ccc2oc(=O)ccc2c1)c1ccccc1[N+](=O)[O-]
    0% | -9% | 3%
57	CCc1ccc(N2CC(C(=O)Nc3ccc4c(c3)OCO4)CC2=O)cc1 (configuration not stated)
    -7% | 31%[activator] | -3%
58	CSc1nsc(/C=C/Nc2ccc(F)cc2)c1C#N
    5% | 61%[activator] | 3%
59	CCCCN(C(=O)CCC(=O)OCC(=O)NCc1ccccc1)c1c(N)n(CCC)c(=O)[nH]c1=O
    -5% | -10% | -4%
60	COc1cccc(OC)c1OCCCCc1c(C)n[nH]c1C
    2% | 5% | 3%

2 of these compounds, reformatted.
#53 COc1ccccc1C(=O)NCC(=O)N1CCN(S(=O)(=O)c2ccccc2C(F)(F)F)CC1
  RE007 growth inh: -5%; StopGo reporter: -13%; SARS PLP yeast: 6%
#54 COc1ccc([C@H]2CC(=O)C=C(c3ccc(Br)c4ccccc34)C2)cc1
  RE007 growth inh: 6%; StopGo reporter: -12%; SARS PLP yeast: -2%

The list continues:
Fields – RE007 growth inh | StopGo reporter | SARS PLP yeast
61	COc1ccc([C@@H]2[C@@H]3C(=O)N(C(C)(C)C)C(=O)[C@@H]3[C@]3(Cc4ccccc4)C(=O)N(c4cccc(Cl)c4)C(=O)N23)cc1
    10% | -19% | 0%
62	O=C(N[C@@H]1C/C=C\C[C@@H](CC(=O)N(CCO)Cc2ccccc2)C(=O)N[C@H](Cc2ccccc2)COC1=O)OCC1c2ccccc2-c2ccccc21
    1% | -11% | 0%
63	C[C@@H](O)C(C(=O)N1CCNCC1)n1cc([C@@H](N)CCCCN)nn1 (some centres not stated)
    10% | -20% | -4%
64	CCN(CC)CCN(C(=O)CCOc1ccccc1)c1nc2ccc(F)cc2s1
    -9% | -16% | 1%
65	CC(OC(=O)c1cccc(-n2cnnn2)c1)c1nc2ccccc2c(=O)[nH]1 (configuration not stated)
    3% | ? | -9%
66	O=P(O)(C(O)c1ccccc1)C(O)c1ccccc1 (configuration not stated)
    16% | -2% | -4%
67	CC1CCCC(NC(=O)CSc2ncnc3ccccc23)C1C (configuration not stated)
    8% | 0% | -6%
68	O=C(Cc1c(F)cccc1Cl)OCC(=O)N1CCN(c2ccccc2)CC1
    9% | 0% | -1%
69	Cc1cc(C)n2nc(C(=O)OCC(=O)Nc3ccc(C)c(F)c3)nc2n1
    9% | -9% | -9%
70	O=C(Cn1nc(C(=O)O)c2ccccc2c1=O)Nc1cc(Cl)ccc1-n1cncn1
    -7% | -6% | -2%
71	C=CCC[C@H](Cc1ccc(F)cc1)C(=O)OC[C@@H](NC(=O)[C@H](CC=C)CC(=O)NCCO)C(C)(C)C
    -6% | -29% | 1%
72	CC1CCN(C(=O)C(C)OC(=O)CSc2ccc([N+](=O)[O-])cc2)CC1 (configuration not stated)
    ? | -18% | -5%

Screening data from PubChem BioAssay.
